Bioassay records as filed in PubChem BioAssay.
KCNQ2 inh: KCNQ2 potassium channel inhibitors, primary screen, cell-based, CHO-K1, FluxOR thallium flux, B-score (AID 2156); 20 min; active compounds read low; only compounds with negative scores are shown here; some inactives read as strong as hits; B-score at 10 µM; O88943; 310,000 tested, 1.1% active;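 active = fluorescence ratio B-score at most minus 3 library SDs, with starting brightness B-score within 2 library SDs, cut at about -5.5 in these data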
Target sequence (O88943 whole entry, looked up): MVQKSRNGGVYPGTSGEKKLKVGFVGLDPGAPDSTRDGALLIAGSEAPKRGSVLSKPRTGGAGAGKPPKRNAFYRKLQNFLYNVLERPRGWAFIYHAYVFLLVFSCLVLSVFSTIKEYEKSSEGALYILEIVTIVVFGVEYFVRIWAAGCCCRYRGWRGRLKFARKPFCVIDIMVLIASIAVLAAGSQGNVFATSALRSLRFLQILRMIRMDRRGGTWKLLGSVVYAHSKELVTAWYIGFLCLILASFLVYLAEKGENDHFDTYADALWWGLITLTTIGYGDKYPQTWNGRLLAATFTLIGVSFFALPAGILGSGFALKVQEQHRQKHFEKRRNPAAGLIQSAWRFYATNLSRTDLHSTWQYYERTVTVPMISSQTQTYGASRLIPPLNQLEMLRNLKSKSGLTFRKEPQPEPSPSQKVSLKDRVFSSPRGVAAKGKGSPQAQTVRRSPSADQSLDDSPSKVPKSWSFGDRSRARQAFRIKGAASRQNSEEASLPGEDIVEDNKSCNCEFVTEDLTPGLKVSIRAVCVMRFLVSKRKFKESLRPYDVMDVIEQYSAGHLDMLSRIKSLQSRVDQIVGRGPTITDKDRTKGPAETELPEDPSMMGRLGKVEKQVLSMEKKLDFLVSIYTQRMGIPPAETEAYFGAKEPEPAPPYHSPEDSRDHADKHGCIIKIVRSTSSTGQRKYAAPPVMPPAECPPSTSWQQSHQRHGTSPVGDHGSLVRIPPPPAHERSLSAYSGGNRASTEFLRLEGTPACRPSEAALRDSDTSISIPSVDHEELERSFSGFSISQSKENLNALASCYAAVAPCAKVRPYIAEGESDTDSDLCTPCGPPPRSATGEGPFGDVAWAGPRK
KCNQ2 inh baseline: second read-out of KCNQ2 inh, no call of its own (marks repeat the call); B-score; measured here: initial fluorescence intensity artifact check;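 brightness before thallium and not channel activity; 0 = typical well and far values either way flag optical interference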
Active calls of the source: *; i = inactive. An excerpt; the hit share may differ from the screen's.

SMILES	KCNQ2 inh	KCNQ2 inh baseline
COc1ccc(NC(=O)C(=O)NCCO)cc1Cl	i	1.7
CC1CN(C(=O)CCC(=O)NC2CCN(Cc3ccccc3)CC2)c2ccccc2O1 (stereo unspecified)	i	1.6
CC(Sc1nccn1C)C(=O)c1ccc(Br)cc1 (stereo unspecified)	i	0.9
Fc1ccccc1Nc1nc2ccccc2n2nnnc12	i	0.66
CN(C)S(=O)(=O)c1ccc(C(=O)N2CC(=O)Nc3ccc(F)cc3C2c2ccc(F)cc2)cc1 (stereo unspecified)	i	-0.71
COc1cc(SC#N)ccc1N=Cc1c(C)[nH]n(-c2ccc(C)cc2C)c1=O	i	0.63
O=C(Nc1ccccc1N1CCCC1)C1CCN(C(=O)c2ccc(F)cc2)CC1	i	1.8
COCCCn1c(SCC(=O)Nc2ccc(NC(C)=O)cc2)nc2sc3c(c2c1=O)CCC3	i	0.09
O=c1nc2c(O)cccn2c2c1c(=O)[nH]c1ccccc12	i	9
CCCCc1cc(=O)oc2cc(C)cc(OCC(=O)Nc3cccnc3)c12	i	-1.9
Cc1cc(C)n2nc(CC(=O)NCc3ccccc3Cl)nc2n1	i	-1.5
Cc1ccc(NC(=O)CSC2=NN3CCCC(=O)N=C3S2)c(C)c1	i	-1.2
CCOC(=O)N1CCC(NC(=O)CCN2C(=O)COc3ccccc32)CC1	i	0.81
CNC(=O)c1nc(C)n(-c2cc(Cl)cc(Cl)c2)n1	i	-2.6
COC(=O)C(CO)NC(=O)C(C)NC(=O)CNC(=O)OCc1ccccc1 (stereo unspecified)	i	-0.03
CCOC(=O)c1oc2ccccc2c1COC(=O)CNC(=O)c1ccco1	i	-1.5
COc1ccc(C(C)=O)cc1COc1ncnc2ccccc12	i	-2
COc1ccccc1CCNS(=O)(=O)c1cc2c3c(c1)CCN3C(=O)CC2	i	1.6
CC(SCc1ccccc1)C(=O)NC1CCCC1 (stereo unspecified)	i	1
CCOc1cc2c(cc1OC)C(NC(=O)C(F)(F)F)CC2=O (stereo unspecified)	i	-0.93
CCOC(=O)c1sc(NC(=O)CN2CC(C)OC(C)C2)nc1C (stereo unspecified)	i	1.1
O=C(O)CCN1C(=O)c2ccc(NC(=O)CSc3ccccc3)cc2C1=O	i	-0.47
N=c1oc2ccc(Br)cc2cc1C(=O)NCc1ccc(F)cc1	i	0.26
O=C(COc1ccc(F)cc1)Nc1nc(-c2ccccn2)cs1	i	-1.5
CSc1nnc(C2CCN(CC(=O)Nc3ccccc3N3CCOCC3)CC2)n1C	i	-0.78
SMILES	KCNQ2 inh	KCNQ2 inh baseline
N#Cc1ccccc1S(=O)(=O)Nc1ccc2c(c1)OCCO2	i	-0.27
CNc1nc(Nc2ccccc2)nc(OCC(F)(F)F)n1	i	1.9
O=C(NNC(=S)NC(=O)c1ccccc1)c1ccc(O)cc1	i	0.78
CN(CC(=O)Nc1ccccc1C(=O)N1CCCC1)S(=O)(=O)c1ccc(Br)cc1	i	-0.17
CCN(C(=S)Nc1cccnc1)c1cccc2ccccc12	i	0.78
COc1ccc(CNC(=O)CS(=O)Cc2nc(-c3ccc(C)cc3)oc2C)cc1 (stereo unspecified)	i	1.2
Cc1ccc(C)c(N2CCN(C(=O)c3ccc(CS(=O)Cc4ccc(Cl)cc4)o3)CC2)c1 (stereo unspecified)	i	1.2
CC(C)(C)C(=O)NC(=S)Nc1cccc(C(=O)O)c1	i	-0.37
CCCC1N2CC3([N+](=O)[O-])CN1CC([N+](=O)[O-])(C2)C3(C)C (stereo unspecified)	i	-1
N#CCCN(C(=O)COC(=O)c1nc(Cl)ccc1Cl)c1ccccc1	i	1.8
COc1cc([N+](=O)[O-])ccc1NC(=O)CN(C)C	i	1.9
CC(=O)NN1C(=O)/C(=C/c2ccc(C(C)C)cc2)SC1=S	i	1.5
Cc1cc(C)cc(NC(=O)N2CCC(C(=O)c3ccc(F)cc3)CC2)c1	i	-0.3
CC1CC(C)(C)CC2(C1)NC(=O)N(CC(=O)Nc1ccc(N3CCCCC3)cc1)C2=O (stereo unspecified)	i	-0.76
CCOc1c(Br)cc(/C=N\NC(=O)c2ccccc2)cc1OC	i	0.91
O=c1oc(Nc2ccc(F)cc2)nc2ccccc12	i	2.2
S=c1[nH]nc(C2CCCCC2)n1/N=C/c1ccc(Cl)cc1	i	-0.23
O=C(O)c1ccc(N2C(=O)CC(N3CCN(c4cccc(Cl)c4)CC3)C2=O)cc1 (stereo unspecified)	i	2.3
C=CCn1c(SCC(=O)Nc2nncs2)nnc1-c1ccco1	i	1.9
CCOC(=O)N1CCN(C(=O)CSc2ccccc2)CC1	i	-1.2
Cc1ccc(C)c(S(=O)(=O)Nc2ccc(O)c(Sc3ncn[nH]3)c2)c1	i	1.2
CCCOc1ccc(C(C)=O)cc1CSCCC#N	i	-0.12
O=S(=O)(NCCOc1ccc(F)cc1)c1ccc2c(c1)OCCO2	i	0.05
CCOc1ccc(NC(=O)CSc2nc3c(c(=O)n2-c2ccccc2OC)SCC3)cc1	i	1
C=CCOc1ccc(C(=O)n2cc(C(=O)OC)c3ccccc32)cc1	-6.2*	-0.04*
SMILES	KCNQ2 inh	KCNQ2 inh baseline
C/C(=N/NC(=O)c1ccncc1)c1ccc(NC(=O)c2ccc(Cl)cc2Cl)cc1	i	-1.9
COc1ccc(-c2cc(C(F)(F)F)n3nc(C(=O)Nc4cc(C)on4)cc3n2)cc1OC	i	0.53
O=C(NC1CCCCC1)c1cccc(OCc2ccccc2)c1	i	2.2
COc1ccc(CN2C(=O)C(Cc3ccccc3)Nc3ncnc(N4CCOCC4)c32)cc1 (stereo unspecified)	i	1.8
O=C(COC(=O)CNS(=O)(=O)c1ccccc1)NC12CC3CC(CC(C3)C1)C2	i	2.6
Cc1nc2ccccn2c1P(=Nc1ccccc1)(N(C)C)N(C)C	i	-0.31
Cc1cc(O)c(C(=O)/C=C/c2c(F)c(F)c(F)c(F)c2F)c(=O)o1	i	2.5
CC1CC(C)CN(C(=O)COC(=O)Cc2c[nH]c3ccccc23)C1 (stereo unspecified)	i	0.83
Cn1cc(Br)c(NC(=O)/C=C/C(=O)O)n1	i	1.4
CCN(CCn1cccn1)Cc1cn[nH]c1-c1ccc(-c2ccccc2)cc1	i	-0.51
COc1ccc(C2=[N+]([O-])C(C)(C)C(c3ccccc3)=N2)cc1	i	-0.28
Cc1cccc(N/C(N)=N/c2nc(C)cc(=O)[nH]2)c1	i	-1.7
COc1ccc2c(Cl)c(C(=O)NCc3ccco3)sc2c1	i	-0.32
Cc1cc(=O)[nH]c(N/N=C/c2c(C)oc3ccccc23)n1	i	3.7
O=C(COC(=O)c1cc(S(=O)(=O)N2CCCCC2)ccc1N1CCOCC1)NCCc1ccc(F)cc1	i	0.55
O=C(NCc1ccco1)C(=S)N1CCCC1	i	0.1
CCC(CO)Nc1ccc(-c2n[nH]c(=O)c3ccccc23)cc1[N+](=O)[O-] (stereo unspecified)	i	-1.4
CC1COc2ccccc2N1S(=O)(=O)c1cc(Cl)ccc1Cl (stereo unspecified)	i	0.23
FC(F)(F)c1cc(Oc2ccccc2Cl)nc(-c2ccccn2)n1	i	0.94
CSc1ccc(S(=O)(=O)NCc2ccccc2)cc1	i	-1.2
Cc1ccc(NCc2ccccc2F)cc1	i	0.36
COCc1nnc(NS(=O)(=O)c2ccc(Br)cc2)s1	i	-1.5
Cc1ccc(C(=O)Nc2nc(-c3cccnc3)cs2)o1	i	-1.6
CCCCc1c(O)n2c(nc3ccccc32)[nH]c1=O	i	-2.9
Nc1nc(N2CCN(C(c3ccccc3)c3ccccc3)CC2)n[nH]1	i	-1.4
SMILES	KCNQ2 inh	KCNQ2 inh baseline
O=S(=O)(NCCN1CCCC1)c1ccc(Br)cc1	i	-0.11
O=C(Oc1ccccc1F)C1CCN(C(=O)c2ccc(F)cc2)CC1	i	-0.62
Cc1ccnc(NCc2ccc(Br)cc2)c1	i	-1.8
CCCOc1ccc(C2c3c(oc4cc(C)c(C)cc4c3=O)C(=O)N2CCCN2CCOCC2)cc1 (stereo unspecified)	i	-0.4
CCOC(=O)c1nn(-c2ccccc2)c2nc(-c3ccc(OC)cc3)c(C#N)c(=O)n12	i	0.47
O=C(CN1CCN(S(=O)(=O)c2cc(Cl)ccc2Cl)CC1)Nc1ccc2c(c1)OCCO2	i	-1.8
Cc1ccc(OCC(=O)NC(=S)Nc2cccc(C)n2)cc1	i	-0.96
CC1=CC(C)(C)N(C(=O)CNC2CCCC2)c2cc(C)ccc21	i	-0.91
CCc1cc(-c2[nH]ncc2-c2nc3ccccc3n2C)c(O)cc1O	i	0.25
CCCSc1ccc([C@@H]2[C@H]3C(=O)N(CC)C(=O)[C@H]3[C@]3(C(=O)OC)CCCCN23)cc1OC	i	-0.02
Cc1ccc(N2C(N)=C(C#N)C(c3cccnc3)C3=C2CCCC3=O)cc1 (stereo unspecified)	i	-0.57
CC(C)C(=O)NC(=S)NCC(=O)c1ccccc1	i	0.23
CCOc1ccc(C(=O)Nc2cc(-c3nc4ccccc4[nH]3)ccc2C)cc1[N+](=O)[O-]	i	-0.66
Cc1nn(CC(C)C)c(Cl)c1C(=O)N(C)CC(=O)Nc1c(Cl)cccc1Cl	i	1.7
CCOC(=O)C1(Cc2ccccc2C(F)(F)F)CCN(C(C)CSC)CC1 (stereo unspecified)	i	-0.03
COc1ccc(CCNC(=O)C2CCCN(c3ncnc4c3nc3n4CCCCC3)C2)c(OC)c1 (stereo unspecified)	i	1.2
CCOc1ccccc1NC(=O)CSc1nc(=O)n(CCCN2CCOCC2)c2c1CCCC2	i	-0.13
O=C(CSc1ncccn1)n1c2c(c3ccccc31)CCCC2	i	0.19
CCOC(=O)C1(CCOc2ccccc2)CCN(Cc2ccc(-n3cccn3)cc2)CC1	i	-0.83
O=C(NC(=O)c1ccccc1F)OCc1ccc(Cl)cc1Cl	i	-0.51
CC1CCCC(C)N1C(=O)c1ccc(S(=O)(=O)NCc2ccco2)cc1 (stereo unspecified)	i	-1.2
Cc1ccc(-c2nn(Cc3ccccc3)cc2/C=C/C(=O)O)cc1	i	1.4
C/C(=N/NC(=O)c1cc(C)[nH]n1)c1ccncc1	i	0.99
CCOC(=O)C(CCCCCOc1ccccc1[N+](=O)[O-])C(=O)OCC	i	-0.01
CN(C)c1ccc(CN(Cc2ccco2)C(=O)c2ccco2)cc1	i	-1.8
SMILES	KCNQ2 inh	KCNQ2 inh baseline
O=C(c1ccc(Cl)cc1)c1cnc(Nc2ccccc2Cl)s1	i	0.65
COc1cc(C(=O)N2CCN(Cc3ccccn3)CC2)cc(OC)c1OC	i	-1.4
NCCOc1ccc(C23CC4CC(CC(C4)C2)C3)cc1	i	0.81
COc1cc(/C(C)=N/NC(=S)NC(C)C)cc(OC)c1OC	i	0.97
CCN(Cc1ccccc1)C(=O)c1cccc(S(=O)(=O)N2CCN(c3ccc(F)cc3)CC2)c1	i	2.8
CCCOP(=O)(c1ccc(N(C)C)cc1)C(O)c1cc(OC)ccc1OC (stereo unspecified)	i	0.59
COc1cccc(/C=N/NC(=O)c2nnn(-c3nonc3N)c2C(C)C)c1OCc1ccc(F)cc1	i	-0.94
CCCn1nnnc1NCc1ccc(OC)cc1OC	i	1.1
O=C(c1ccccc1S(=O)(=O)NCC(O)COc1ccc([N+](=O)[O-])cc1)N1CCCCC1 (stereo unspecified)	i	0.49
CC(C)CC(=O)NCCCCc1ccccc1	i	1.9
Cc1ccc(CNc2ccc3c(c2)OCO3)c(C)c1	i	2.3
COc1ccccc1C1=NOC(COC(=O)c2ccc(Br)cc2)C1 (stereo unspecified)	i	0.5
Cc1ccc(N(CC(=O)NCc2ccc(F)cc2)C(=O)c2ccco2)cc1C	i	-0.79
O=S(=O)(NCCc1ccncc1)c1cc(Br)ccc1F	i	-3.1
COc1cccc(NC(=O)CN(C)C(=O)CSC(=S)N2CCCC2)c1	i	-1
C/C(=N/Nc1nc(-c2ccccc2F)nc2ccccc12)c1ccccc1O	i	0.31
Cc1cc(C)nc(N=Nc2c(O)n(Cc3ccc(Cl)cc3)c3ccccc23)n1	-5.9*	-1.1*
COc1ccc(OCC(=O)Nc2ccc(S(=O)(=O)N(C)c3ccccc3)cc2)cc1	i	-0.02
COC(=O)c1cc[n+](CC(=O)c2ccccc2)cc1	i	0.59
Cc1cccc(NC(=O)c2ccc3c(Cl)c4c(nc3c2)CCCC4)n1	i	0.08
CCOC(=O)C(CC)Sc1nc2c(cnn2-c2ccccc2)c(=O)[nH]1 (stereo unspecified)	i	-0.83

Gathered by group, those above with a Cl atom
SMILES	KCNQ2 inh	KCNQ2 inh baseline
COc1ccc(NC(=O)C(=O)NCCO)cc1Cl	i	1.7
Cc1cc(C)n2nc(CC(=O)NCc3ccccc3Cl)nc2n1	i	-1.5
CNC(=O)c1nc(C)n(-c2cc(Cl)cc(Cl)c2)n1	i	-2.6
Cc1ccc(C)c(N2CCN(C(=O)c3ccc(CS(=O)Cc4ccc(Cl)cc4)o3)CC2)c1 (stereo unspecified)	i	1.2
N#CCCN(C(=O)COC(=O)c1nc(Cl)ccc1Cl)c1ccccc1	i	1.8
S=c1[nH]nc(C2CCCCC2)n1/N=C/c1ccc(Cl)cc1	i	-0.23
O=C(O)c1ccc(N2C(=O)CC(N3CCN(c4cccc(Cl)c4)CC3)C2=O)cc1 (stereo unspecified)	i	2.3
C/C(=N/NC(=O)c1ccncc1)c1ccc(NC(=O)c2ccc(Cl)cc2Cl)cc1	i	-1.9
COc1ccc2c(Cl)c(C(=O)NCc3ccco3)sc2c1	i	-0.32
CC1COc2ccccc2N1S(=O)(=O)c1cc(Cl)ccc1Cl (stereo unspecified)	i	0.23
FC(F)(F)c1cc(Oc2ccccc2Cl)nc(-c2ccccn2)n1	i	0.94
O=C(CN1CCN(S(=O)(=O)c2cc(Cl)ccc2Cl)CC1)Nc1ccc2c(c1)OCCO2	i	-1.8
Cc1nn(CC(C)C)c(Cl)c1C(=O)N(C)CC(=O)Nc1c(Cl)cccc1Cl	i	1.7
O=C(NC(=O)c1ccccc1F)OCc1ccc(Cl)cc1Cl	i	-0.51
O=C(c1ccc(Cl)cc1)c1cnc(Nc2ccccc2Cl)s1	i	0.65
Cc1cc(C)nc(N=Nc2c(O)n(Cc3ccc(Cl)cc3)c3ccccc23)n1	-5.9*	-1.1*
Cc1cccc(NC(=O)c2ccc3c(Cl)c4c(nc3c2)CCCC4)n1	i	0.08
